Screens from PubChem BioAssay.
NPYLR7 ag – mosquito NPYLR7 agonism; AID 1259423; HEK293T NPYLR7/Galpha15, GCaMP6s calcium fluorescence; activation, % at 10 µM; hit rate 0.15% among 270,000; in the data active = activation above about 40%;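 note: 0% = vehicle and 100% = reference agonist at the receptor; some compounds past the cut are filed as inactive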
NPYLR7 ag max-min – further read-out of NPYLR7 ag, marked with its call; activation, %; measured here: Max-Min RFU normalised activation; some inactives read as strong as hits;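 span of the calcium signal over five minutes; 0% = vehicle and 100% = native peptide agonist; compound fluorescence can raise it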
* hit, by the source's call; & = joins results of further samples. This is a subset; count on the stated rates, not on these rows.

SMILES	NPYLR7 ag	NPYLR7 ag max-min
OCCN1CCN(CC(O)COc2ccc(Cl)cc2)CC1 (stereo unspecified)	1	29
OCC1(Cc2ccccc2)CCCN(Cc2ccc(-c3ccco3)cc2)C1 (stereo unspecified)	-9	-14
COc1c(C)cc(C(=O)C2CCCN(C(=O)c3ccncc3)C2)cc1C (stereo unspecified)	4	0
O=C(CCCn1nnnc1CN1CCOCC1)N1CCC(c2ccc(F)cc2)C1 (stereo unspecified)	2	3
Cc1cccnc1NC(=O)c1ccc2c(c1)S(=O)(=O)N(C(C)C)C2=O	-1	1
CCC(=O)N1CCCC1(C)C(=O)Nc1ccc(OC(F)F)cc1 (stereo unspecified)	5	2
COc1ccc(CC(=O)Nc2cc(-c3cccs3)nn2-c2nc(C)c(C)c(=O)[nH]2)cc1	3	2
Cc1nccc(-c2ccccc2)c1C(=O)N1CCC2(CCCO2)CC1	7	4
CC(NC(=O)c1cc(NC(=O)Nc2ccc(F)cc2F)ccc1N1CCCC1)c1ccccc1 (stereo unspecified)	6	15
CCNc1nnc(SCc2nc3ccccc3o2)s1	0	-1
O=C(c1ccc(-c2cccc3ccnn23)nc1)N1CCCCC1CCn1cccn1 (stereo unspecified)	-1&19	-1&7
Cc1ccc(C(=O)N[C@@H]2c3ccccc3C[C@@H]2O)cc1N1CCNC1=O	0	1
COc1ccc(OC)c(S(=O)(=O)Nc2ccccc2C(=O)NCc2cccc(Cl)c2)c1	1	15
Cc1cccc(CSc2[nH]c(=O)ncc2C)c1	0	-1
O=C(CNC(=O)c1ccccc1)N=Nc1c(O)n(Cc2ccc3c(c2)OCO3)c2ccccc12	-1	-5
NC(=O)c1cc(=NCC2CCCO2)ccn1C(=O)c1ccc(-n2cccc2)cc1 (stereo unspecified)	-2	-1
CCC(C)(CC(=O)O)CC(=O)N1CCC2(CC1)OCc1cc(-c3cc(OC)c(OC)c(OC)c3)ccc1O2 (stereo unspecified)	5	8
CC1(C)C(c2ccc(Br)cc2)=[N+]([O-])C2(CCCCC2=O)N1O (stereo unspecified)	-15	-24
COc1ccc2c3c([nH]c2c1)[C@H]1C[C@H]2[C@H](C[C@@H](O)[C@H](OC)[C@H]2C(=O)O)CN1CC3	11	-6
O=C1Nc2ccccc2Oc2ccc(NS(=O)(=O)c3cccs3)cc21	8	6
COC(=O)c1nnn(-c2nonc2N)c1CN1CCCC1	9	5
CC(C)NC(=O)NCCc1ccc(NC(=O)c2cc(F)ccc2C(F)(F)F)cc1	-9	-14
O=C1OCCN1CCOc1cccc(F)c1F	-3	-4
Cc1noc(CNC2(c3cccc(Br)c3)CCOCC2)n1	-2	-1
Cc1cc(Cl)ccc1-n1c(C(C)N(CC(C)C)C(=O)c2ccc(Br)cc2)nc2ccccc2c1=O (stereo unspecified)	16	25
Cc1ccc(C(=O)CSc2nccn(-c3ccc(Cl)cc3)c2=O)c(C)c1	20	8
Cc1cc(F)ccc1Oc1cc(N2CCC(C)CC2)ncn1	-9	-8
Cc1ccc(-n2c(C)cn3c4c(=O)n(CCN5CCOCC5)c(=O)n(C)c4nc23)c(C)c1	1	22
CN(Cc1ccc(O)cc1)C(=O)c1cccc(OC(F)F)c1	1	-2
Cc1ccc(S(=O)(=O)c2cnc(SCC(=O)Nc3ccccc3)[nH]c2=O)cc1C	-8	-14
C=CCN(CC(=O)N(Cc1ccccc1)Cc1ccc(C)s1)C(=O)Nc1cccc(Br)c1	5	12
COc1ccc(/C=C\C(=O)Nc2c3c(nn2-c2ccc(F)cc2)CSC3)cc1OC	-2	-5
CN(CC(N)=O)C(=O)[C@@H]1[C@@H](NC(=O)Nc2ccc(F)cc2F)CCN1C(=O)c1cccn1C	-8	-16
COCCN(C)Cc1nc(Cc2ccccc2Cl)no1	4	0
Clc1ccc(N2CCCC3CCCCC32)nn1 (stereo unspecified)	4	1
CC(C)(C)c1c(Br)cc(C(=O)O)c([N+](=O)[O-])c1[N+](=O)[O-]	11	13
Cc1cccc(C)c1N1C(=O)CC(NN2CCOCC2)C1=O (stereo unspecified)	10	4
C=CCNC(=O)Cn1c(=O)c2c(OCC)ccnc2n(C)c1=O	-5	-7
O=C(Cc1ccc(F)cc1)NCCOc1cc(N2CCCC2)ncn1	0	-2
COc1cc(CNC(=O)Cc2c[nH]c3ccccc23)cc(OC)c1OC	-2	-2
CC(C)c1cc(CN2CCC(n3nccc3NC(=O)Cc3ccccc3)CC2)[nH]n1	-3	-6
O=c1c(-c2csc(-c3ccccc3)n2)c(C(F)(F)F)oc2cc(O)ccc12	0	-2
CCc1c(C)nc(-n2nc(C)cc2C)n(CC(=O)Nc2ccc(Cl)cc2)c1=O	3	0
CN1c2ccccc2NC2C1N=C(c1ccccc1)N2c1ccccn1 (stereo unspecified)	2	18
CCN(CC)c1ccc(CN(CC(C)C)C(=O)c2cccs2)c(OS(=O)(=O)c2ccc(NC(C)=O)cc2)c1	0	7

Quoted at random: seven compounds from above.
SMILES	NPYLR7 ag	NPYLR7 ag max-min
Clc1ccc(N2CCCC3CCCCC32)nn1 (stereo unspecified)	4	1
O=c1c(-c2csc(-c3ccccc3)n2)c(C(F)(F)F)oc2cc(O)ccc12	0	-2
CC(C)(C)c1c(Br)cc(C(=O)O)c([N+](=O)[O-])c1[N+](=O)[O-]	11	13
CN(CC(N)=O)C(=O)[C@@H]1[C@@H](NC(=O)Nc2ccc(F)cc2F)CCN1C(=O)c1cccn1C	-8	-16
O=C(Cc1ccc(F)cc1)NCCOc1cc(N2CCCC2)ncn1	0	-2
COc1cc(CNC(=O)Cc2c[nH]c3ccccc23)cc(OC)c1OC	-2	-2
C=CCN(CC(=O)N(Cc1ccccc1)Cc1ccc(C)s1)C(=O)Nc1cccc(Br)c1	5	12

(listing goes on)
SMILES	NPYLR7 ag	NPYLR7 ag max-min
CCOCCCNCc1cc(Br)c(OCC(N)=O)c(OCC)c1	1	3
Cc1ccc(CS(=O)(=O)N2CCCC(N3CCCC3=O)C2)cc1 (stereo unspecified)	9	4
COc1cc(C(=O)N(C)C(C)Cc2cc(C)ccn2)nc(OC)n1 (stereo unspecified)	-1	0
CCNC(=O)C1(C)CCCN1C(=O)c1ccc(OC)cc1 (stereo unspecified)	5	1
CCCC(=O)N(CCCN1CCOCC1)c1nc2c(OC)ccc(C)c2s1	-1	-8
Cc1nc2ccccc2c(=O)n1NC(=O)Cc1ccc(Br)cc1	-6	-6
Cc1cccc(N2CCN(Cc3nc4ccsc4c(=O)[nH]3)CC2)c1C	0	3
CC(C)c1cccc(Nc2nnc(C(O)c3cccs3)s2)c1 (stereo unspecified)	6	4
Cn1ccc2ccn(CC(=O)NCc3ccc(F)cc3)c(=O)c21	-7	-6
CCOC(=O)c1ccc(N2CCCn3c2nc2c3c(=O)n(C)c(=O)n2C)cc1	-4	-5
Cc1cccc(C)c1CN1CCCC(CNS(C)(=O)=O)C1 (stereo unspecified)	1	10
CC(NS(=O)(=O)c1ccccc1)C(=O)Nc1ccc(OC(F)F)cc1 (stereo unspecified)	3	4
CCCSc1ncccc1C(=O)Nc1cccc(SC)c1	-10	-13
CCOc1ccc(CCCC(=O)N2CC[C@H](NC(C)=O)C2)cc1C	11	-1
CCC(CC)c1nnc(NC(=O)[C@H](C)N2C(=O)C3CC=CCC3C2=O)s1 (stereo partly specified)	1	-2
CCc1nc2ccc(C(=O)NCCCN(C)C)cn2c1N(CC)CC(=O)N(C)C	10	14
COc1ccc(N2C(=O)CC3CS(=O)(=O)CC32)c(OC)c1 (stereo unspecified)	-3	-2
COC(=O)c1c(NC(=O)c2cc3nc(-c4ccccc4)cc(C(F)(F)F)n3n2)sc2c1CCCC2	-7	-12
CC(C)COCC(O)CN(CC(=O)N1CCc2sccc2C1COc1ccc(F)cc1)CC1CC1 (stereo unspecified)	6	5
O=C(OCc1nc2ccccc2s1)c1cc2cc([N+](=O)[O-])ccc2s1	0	-3
CCOC(=O)C1=C(C)NC(=S)NC1c1cccc(OC)c1OC (stereo unspecified)	13	10
COC(=O)[C@@H]1CC2=CC(=O)CC[C@]2(C)[C@@]23O[C@@H]2C[C@@]2(C)[C@@H](CC[C@@]24CCC(=O)O4)[C@H]13	-2	-5
CNC(=O)[C@H]1CN(C(=O)OCc2ccccc2)[C@]2(C)C(=O)N(CC(=O)N(C)C)c3ccccc3[C@H]12	24	29
Cc1ccc(-c2cnoc2NC(=O)CSc2nc(-c3ccc(Cl)cc3)cc(=O)[nH]2)cc1	-5	-9
CC(NC(=O)c1cn(-c2ccccc2)nn1)c1cnccn1 (stereo unspecified)	2	0
Cc1ccc(O)c(CN2CCCn3cccc3C2c2ccc(C(F)(F)F)cc2)c1 (stereo unspecified)	0	8
Cc1ccc(OCc2nnc(NC(=O)c3ccc(F)cc3)s2)cc1	-18	-20
CCOC(=O)C1(CCc2ccccc2)CCN(Cc2cccn2-c2ncccn2)CC1	9	9
COc1ccc(C(=O)C[n+]2cn(N)c3cc(C)c(C)cc32)cc1	-4	-10
COc1cccc(-c2cnnc(N(C)Cc3cn(C)nc3C)n2)c1	-7	-8
O=C(CCN(Cc1ccccc1)c1nc(Cc2ccccc2)ns1)NCc1ccc(F)cc1	-6	-10
CNC(=O)[C@@H]1C[C@H]2CN(c3ccccc3)C(=O)c3cccc(c32)N1C(=O)C1CCC1	-1	4
Cc1[nH]c(=O)[nH]c(=O)c1S(=O)(=O)Nc1c(F)cccc1F	-12	-19
Cc1ccc(NC(=O)CN(C)C(=O)c2csc(C(C)(C)C)n2)cc1	-6	-12
CC(C)c1nn(-c2ccc(F)cc2)c(C(C)C)c1C(=O)NCc1cccnc1	-15	-19
O=C(C1CC1)N1CCc2c(ncnc2NCCCC2CCOC2)C1 (stereo unspecified)	0	-2
CCOc1ccccc1-c1ccc2[nH]ncc2c1	2	3
O=S(=O)(CCN1CCc2ccccc21)c1cc(Cl)ccc1Cl	2	0
CCc1nn(CC(=O)NCCCN(CC)CC)c(=O)c2cc3sc(C)cc3n12	4	2
O=C(NC1CCN(C(=O)C2CC2)CC1)c1cnccn1	6	2
CCOC(=O)C1CCCN(CC(=O)N2N=C(c3cccc(C)c3)CC2c2ccc(Cl)cc2)C1 (stereo unspecified)	-1	3
CC(C)(C)c1cc(-c2ccco2)c(C#N)c(=S)[nH]1	-3	-6
O=C(c1occc1CN1C(=O)Cc2ccccc21)N1CCCCCC1	-3	-3
CC(C)c1cc(C2CCN(C(=O)CCn3cnnn3)CC2)[nH]n1	12	10
CCn1c(=NC(=O)c2ccc(C(C)=O)cc2)sc2cc(Cl)ccc21	9	11

Some of the entries so far, comma-delimited.
SMILES,NPYLR7 ag,NPYLR7 ag max-min
Cc1ccc(NC(=O)CN(C)C(=O)c2csc(C(C)(C)C)n2)cc1,-6,-12
CC(C)c1nn(-c2ccc(F)cc2)c(C(C)C)c1C(=O)NCc1cccnc1,-15,-19
O=C(C1CC1)N1CCc2c(ncnc2NCCCC2CCOC2)C1 (stereo unspecified),0,-2

Additional entries follow:
SMILES	NPYLR7 ag	NPYLR7 ag max-min
O=C(O)/C=C/C(=O)OCC(Cl)=C(Cl)Cl	-1	16
O=C(CONC(=O)c1cccc(C(F)(F)F)c1)NCc1ccccc1	-1	-3
O=C(NCC1CCCN(Cc2ccn[nH]2)C1)C1(c2ccc(Cl)cc2)CC1 (stereo unspecified)	8&-6	6&-7
Cc1c(C)n2c(SCC(N)=O)nnc2[nH]c1=O	-7	-6
Cc1nn2c(C)c(C(=O)OC(C)C)nnc2c1-c1ccccc1	-11	-16
CC(C)(CNC(=O)C1CC1)CNC(=O)C1CC1	6	2
CC(C)C[C@H](NC(=O)[C@H](O)[C@H](N)Cc1ccccc1)C(=O)O	-3	-18
CCOc1ccc(C(=O)N2CCN3CCN(C)C(=O)C3C2)cc1OCC (stereo unspecified)	3	1
CCOc1ccc(CN(Cc2ccccc2)Cc2nc(C(=O)O)co2)cc1	-8	-7
CC(=O)NCc1ccc(C(=O)Nc2ccc(Br)c(C)c2)cc1	2	-5
Cc1nnc(-c2cc3ccccc3n2CC(=O)Nc2ccc(F)cc2)o1	9	6
O/N=C1/CCCc2oc3c(c21)CCCC3	-10	-12
Cc1cn2c3c(=O)[nH]c(=O)n(C)c3nc2n1-c1ccc(O)cc1	10	6
CCN(CC)C(=O)CSc1nc2scc(-c3ccccc3)c2c(=O)[nH]1	7	-1
O=C(Nc1cccc(C2SCC(=O)N2c2ccccc2F)c1)c1ccc(C(F)(F)F)cc1 (stereo unspecified)	14	18

Structural class: those above with a nitro group on carbon.
SMILES	NPYLR7 ag	NPYLR7 ag max-min
CC(C)(C)c1c(Br)cc(C(=O)O)c([N+](=O)[O-])c1[N+](=O)[O-]	11	13
O=C(OCc1nc2ccccc2s1)c1cc2cc([N+](=O)[O-])ccc2s1	0	-3

More entries follow.
SMILES	NPYLR7 ag	NPYLR7 ag max-min
CCOC(=O)c1nn(-c2ccccc2)c(=O)cc1OS(=O)(=O)c1c(C)noc1C	14	10
COc1ccc(-c2ccc(C(=O)NCC(C)C)c3occc23)c(C)c1	3	2
CC(C)(C)C(=O)Cn1cnc2c1c(=O)n(C1CCCC1)c(=O)n2-c1ccccc1	6	5
CN(C(=O)CSc1ncnc2c1nnn2C)c1ccccc1	0	7
Cc1cc(-c2ccccc2CN2CCOCC2)cnc1-n1cnnc1	4	2
CC1(C)C2CC=C(C=NNc3ccc(S(N)(=O)=O)cc3[N+](=O)[O-])C1C2 (stereo unspecified)	-10	-10
S=c1nc(-c2cccs2)[nH]n1CN1CCN(c2ccccn2)CC1	0	2
Cn1ccnc1Sc1nc2c(c(=O)n(C)c(=O)n2C)n1C	3	11
Nc1ccccc1C=NCCCCCCN=Cc1ccccc1N	0	45
FC(F)(F)c1ccc(CC2CCN(Cc3cccs3)CC2)cc1	4	3
O=C(c1cccc(COc2ccc3ccccc3c2)c1)N1CCOCC1	-1	-4
COc1ccc(Cl)cc1-n1ccc2c(cnc3c(-c4ccccc4)c(C)nn32)c1=O	9	8
O=C(C1CCCN1C(=O)c1ccc2cc[nH]c2c1)N1CCSCC1 (stereo unspecified)	-27	-25
O=C(Nc1ccc(-n2cccn2)cc1)C1CCCCN1Cc1cc2ccccc2[nH]1 (stereo unspecified)	5	5
